Bioassay records (PubChem)
Cruzain Triton: inhibitors of Trypanosoma cruzi cruzain with detergent; P25779; purified cruzain, Z-FR-AMC fluorescence, 0.01% Triton; Potency, µM, inactives show max response, negative = inhibition, usual class: inhibitors; 200,000 compounds, 0.43% hits; AID 1478;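 further: plate controls were neutral wells for no effect and buffer without enzyme for full effect; nearly all actives have a fitted effect of over 40% in size; top concentration of the series not given in the record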
Target sequence (P25779 123-467 limits assumed): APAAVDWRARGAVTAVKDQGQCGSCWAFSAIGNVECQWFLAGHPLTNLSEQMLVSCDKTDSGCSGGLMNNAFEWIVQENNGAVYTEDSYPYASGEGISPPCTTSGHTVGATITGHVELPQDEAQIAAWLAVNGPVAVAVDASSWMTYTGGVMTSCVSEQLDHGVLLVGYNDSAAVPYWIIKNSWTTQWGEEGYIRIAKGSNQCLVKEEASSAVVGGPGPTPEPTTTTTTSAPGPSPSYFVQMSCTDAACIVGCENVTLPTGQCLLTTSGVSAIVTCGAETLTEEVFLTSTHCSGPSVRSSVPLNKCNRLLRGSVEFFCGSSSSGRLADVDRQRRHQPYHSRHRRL
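Cysteine protease activity tested under reducing, mildly acidic conditions (100 mM sodium acetate pH 5.5, 5 mM DTT) plus 0.01% Triton X-100. Cruzain 1.5 nM; substrate Z-FR-AMC 2 uM; 15 min compound preincubation at room temperature.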
Lassa entry inh: Lassa virus entry inhibition. Potency, µM (top dose mostly 37.9 µM), inactives show at the highest dose activity change, negative = inhibition, most hits filed as inhibitors. AID 540256. 300,000 compounds, 1.2% hits. Lassa virus pseudotype entry inhibition, cell reporter; control for the full effect not named in the record; active means well fitted inhibition curve with a large enough effect; inconclusive means small, poorly fitted or top-dose-only effect, or effect the other way; inactive means flat fitted curve, though single readings scatter; tested in HEK293 cells; further: on the % scale 0 is the no-effect control and ±100 the full control effect; nearly all actives have a fitted effect of over 50% in size; luciferase read-out
SARS PLP yeast: inhibitors of SARS-CoV papain-like protease in yeast; Potency, µM (highest dose often 32.9 µM), without a hit: at the highest dose activity, positive = growth rescue; 330,000 compounds, 0.19% hits; AID 485353; S. cerevisiae expressing SARS-CoV PLpro, growth rescue; control for the full effect not named in the record; active means well fitted rising curve with a large enough effect; inconclusive means small, poorly fitted or top-dose-only effect; inactive means no such curve, though single readings can be large or run the other way; further: 0% is about no effect; nearly all actives have a fitted effect of over 55% in size; growth read by luminescence after 48 h
Cruzain noTriton: cruzain (T. cruzi) inhibition without detergent. P25779. purified cruzain, Z-FR-AMC fluorescence, no detergent. Potency, µM, without a hit: max response, negative = inhibition, most hits filed as inhibitors. 200,000 compounds, 2.3% hits. AID 1476;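 further: plate controls were enzyme without inhibitor for no effect and buffer without enzyme for full effect; nearly all actives have a fitted effect of over 40% in size; top concentration of the series not given in the record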
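Detergent-free condition (0.00005% Triton X-100) in acetate buffer pH 5.5 with DTT. 1.5 nM enzyme and compound were pre-mixed 15 min, then 2 uM Z-FR-AMC substrate added; reaction progress from fluorescence change between first and third reads (60 s).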
RE007 growth inh: less growth of the S. pombe RE007 Vpr strain; Potency, µM (titrated, usually from 92.2 µM), for the others: top-dose activity change, negative = less growth; S. pombe RE007 Vpr strain, BacTiter-Glo ATP luminescence, 24 h; control for the full effect not named in the record; 360,000 compounds, 0.21% hits; AID 651644; active = well fitted falling curve with a large enough effect; inconclusive = small, poorly fitted or top-dose-only effect; inactive = no such curve, though single readings can be large or run the other way;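 further: on the % scale 0 is the no-effect control and ±100 the full control effect; nearly all actives have a fitted effect of over 50% in size; the assay follows cell death caused by Vpr and the record does not say whether a fall means rescue or toxicity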
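Fission yeast strain RE007, carrying one chromosomally integrated HIV-1 vpr copy, was seeded at OD 0.01 in PMG+AL medium with 23 nL pinned compound. After 24 h at 30 °C and 99% humidity, viability was read by BacTiter-Glo luminescence.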
StopGo reporter: lowers the luciferase signal of an FMDV 2A StopGo reporter. human cells with a luciferase reporter of 2A StopGo recoding; control for the full effect not named in the record. 410,000 compounds, 1.2% hits. Potency, µM (titrated, usually from 57.9 µM), without a hit: top-dose signal change, negative = less light; active = well fitted falling curve with a large enough effect; inconclusive = small, poorly fitted or top-dose-only effect; inactive = no such curve, though single readings can be large or run the other way; tested in HEK293T cells; further: on the % scale 0 is the no-effect control and ±100 the full control effect; nearly all actives have a fitted effect of over 45% in size; luciferase light after 4 h
NS1 inh: influenza NS1 inhibition | S. cerevisiae slowed by influenza A NS1, growth recovery by OD600 | Potency, µM (titrated, usually from 46.1 µM), inactives show top-dose activity, positive = more growth | 270,000 compounds, 0.4% hits | AID 2326; active means well fitted rising curve with a large enough effect; inconclusive means small, poorly fitted or top-dose-only effect; inactive means no such curve, though single readings can be large or run the other way; further: nearly all actives have a fitted effect of over 50% in size
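A cell-based growth assay was used: compounds that relieve NS1-induced slow growth of budding yeast raise OD600. Assay medium was yeast nitrogen base with ammonium sulphate and -URA supplement, pH 6.0, with 2% galactose.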
MARV entry inh: blocks Marburg virus binding to or entry into cells. Marburg virus pseudotyped entry inhibition, cell reporter; control for the full effect not named in the record; about a third of the inactives were read at about 46 µM. Potency, µM (highest dose often 37.8 µM), without a hit: at the highest dose activity change, negative = inhibition, most hits filed as inhibitors. 300,000 compounds, 1.8% hits. AID 540276; active = well fitted inhibition curve with a large enough effect; inconclusive = small, poorly fitted or top-dose-only effect, or effect the other way; inactive = flat fitted curve, though single readings scatter; tested in HEK293 cells; about a fifth of its hits are not listed in these tables; further: on the % scale 0 is the no-effect control and ±100 the full control effect; luciferase read-out
* marks the source's active call; other numbers are inactive results; ? = inconclusive; / = no result given; & = joins results of further samples; ! = a repeat was not active; [ ] = another dose, or the depositor's remark. Unless noted, the call rests on the fitted dose curve; in most records, active means well fitted curve in the direction sought with a large enough effect; inconclusive means small, poorly fitted or top-dose-only effect, or another doubt; inactive means no such curve, though single readings can be large; an effect the other way counts as inactive or inconclusive. Potency means the concentration at half of the fitted maximal effect. Not a hit list; overall some 4.7% were active at least once.

mol,Cruzain noTriton,RE007 growth inh,StopGo reporter,MARV entry inh,Lassa entry inh,NS1 inh,Cruzain Triton,SARS PLP yeast
C=C(C)CSc1nnc([C@@H](NC(=O)OC(C)(C)C)C(C)CC)o1 (stereo not given in full),2%,3%,-22%,-9%,?,-3%,5.5%,-3%
Cc1occc1C(=O)NNC(=O)c1ccccc1Br,0%,-13%,30%,?,2%,-5%,0.4%,-20%
CN(C)c1nc(N)nc(-c2ccco2)n1,-3%,-10%,1%,?,-3%,2%,1.1%,10%
ClCCOCOCCCl,-2%,-6%,-23%,/,/,/,1.1%,1%
CCC(CC)C(=O)Nc1c(C(=O)N2CCN(c3ccccc3)CC2)oc2ccccc12,14%,6%,22%&26%,?,?,-22%,-2.9%,-9%
CCOC(=O)c1c(C)oc2c1c1c(c3ccccc32)OCN(CCCC(=O)O)C1,/,-9%,25%,/,/,-2%,/,-2%
COc1cccc(C(C(=O)NC2CCCCC2)N(C(=O)Cc2cccs2)c2ccc(-n3cnnn3)c(OC)c2)c1 (stereo not given),-2%,12%,47%[activator],?,?,15%,1.8%,1%
CCCn1nnc(NC(=O)c2ccc(OCC)c(Cl)c2)n1,1%,3%,46%[activator],13%,-13%,-12%,0.1%,-2%
CCCCOC(=O)CSCC(=O)N1N=C(c2cccs2)CC1c1ccc(F)cc1 (stereo not given),5%,0%,0%,0%,-1%,-63%,-13%,-50%
CCCc1cc(=O)oc2cc(OCC(=O)NCCc3ccc(S(N)(=O)=O)cc3)ccc12,/,-7%,-20%,/,/,5%,/,3%
CCn1c(C)nc2cc(C(=O)OC)ccc21,/,3%,51%[activator],-5%[14.2 µM],34%,0%,/,0%
COc1ccc(C(CNC(=O)/C=C/c2c(Cl)nc3ccccn23)N(C)C)cc1 (stereo not given),/,-4%,-7%,?,4%,/,/,0%
CCC(=O)N1CCc2cc(S(=O)(=O)NCCC(=O)Nc3ccc(C)cc3)ccc21,-3%,/,2%,15%[46.1 µM],17%[46.1 µM],/,-2.3%,/
Cc1sc2nc(CSCC(=O)Nc3ccc(Cl)cc3F)[nH]c(=O)c2c1C,/,15%,-7%,-9%,-3%,/,/,6%
COc1ccc(C(=O)CN2CCOCC2)cc1F,0%,16%,-9%,-1%&-1%,2%,-21%,-0.3%,-5%
CC(=O)/C(N=Nc1ccc(C(=O)O)cc1[N+](=O)[O-])=C(\C)O,/,-24%,-25%,/,/,1%,/,0%
O=C(NNS(=O)(=O)c1cccc(Cl)c1)c1cc(-c2ccc(F)cc2)nc2ccccc12,/,2%,-6%,-15%[46.1 µM],10%,7%,/,0%
Cn1c(O)c(C=NCCN2CCOCC2)c(=O)[nH]c1=S,/,3%,4%,0%[46.1 µM],2%[46.1 µM],0%,/,1%
S=C(c1ccc(-c2cc(Cl)ccc2Cl)o1)N1CCOCC1,-11%,-4%,-10%,?,-21%,-5%,-15%,-10%
CCC(CC)C(=O)Nc1cc(NC(=O)C(CC)CC)cc(C(=O)O)c1,-5%,0%,-2%,28%,?,1%,1.5%,1%
COc1ccc(OC)c2sc(N(Cc3cccnc3)C(=O)c3ccc(C(C)=O)cc3)nc12,?,/,-13%,/,?,/,-3.0%,/
Cc1ccc(Nc2nc(=O)c3cc([N+](=O)[O-])ccc3s2)cc1,/,7%,14%,/,/,0%,/,-1%
COc1ccc(CN=C2NC(=O)CC(C(=O)Nc3ccc(Cl)cc3)S2)cc1 (stereo not given),-2%,-9%,8%,0%,2%,11%,-4.1%,0%
COc1ccc(S(=O)(=O)NCC2CCC(C(=O)NCCCN3CCCC3=O)CC2)cc1 (stereo not given),/,-5%,-18%,/,/,-6%,/,12%
COc1ccc(NC(=O)c2cccs2)cc1C(=O)N1CCN(c2ccccc2)CC1,/,1%,-2%,?,?,-6%,/,7%
CCCN1CNC(=S)N(c2ccccc2C)C1,/,-18%,12%,9%[46.1 µM],3%,/,/,0%
O=C(CN1CCC(n2nnc3cc(F)ccc32)CC1)Nc1ccccc1N1CCOCC1,8%,-13%,?,13µM*!,-3%,-40%,-0.4%,0%
COc1ccc(CN2CC(C(=O)NCCCN3CCN(Cc4ccccc4)CC3)CC2=O)cc1 (stereo not given),2%,0%,-8%,-29%,-8%,19%,-0.5%,16%
Cc1c(CC(=O)NCC(=O)O)c(=O)oc2cc3occ(-c4ccccc4)c3cc12,/,4%,-3%,?,?,10%,/,-1%
N#Cc1ccc(S(=O)(=O)NC2CCN(Cc3ccccc3)CC2)cc1,/,6%,-15%,-11%[46.1 µM],0%[46.1 µM],-1%,/,0%

(continued)
mol,Cruzain noTriton,RE007 growth inh,StopGo reporter,MARV entry inh,Lassa entry inh,NS1 inh,Cruzain Triton,SARS PLP yeast
O=c1sc2ccccc2n1COc1ccc(Cl)cc1,2%,-22%,15%,20%,5%,-2%,-5.8%,0%[6.58 µM]
CSc1nc(N2CCN(CCO)CC2)c2sc3nc(-c4ccco4)c4c(c3c2n1)CCC4,-1%,/,/,-2%,/,6%,-16%,9%
O=c1c2ccccc2nc(-c2ccccc2)n1CCN1CCOCC1,3%,14%,13%,0%,-7%,6%,2.6%,4%
CC(Sc1nc(C(C)(C)C)cc(-c2ccccc2)c1C#N)C(=O)Nc1ccccc1 (stereo not given),?,10%,-34%,?,-13%,10%,-5.7%,-21%
CCN(CC)C1CCN(C(=O)c2cc(COc3ccc(-n4cncn4)cc3)on2)C1 (stereo not given),/,-5%,-19%,-1%,?,15%,/,3%
NNc1nc(N)c2c(n1)-c1ccccc1CC21CCCC1,5%,-22%,-20%,?,0%[46.1 µM],7%,-1.8%,-15%
O=C1Nc2ccccc2C12OCC1(CO2)COC2(OC1)C(=O)Nc1ccccc12 (stereo not given),-18%,16%,-16%,4%,?,?,-4.5%,1%
CC(C)Cn1c(-c2nn(C)cc2Cl)n[nH]c1=S,-2%,11%,0%,-1%,6%,0%,1.8%,1%
CC(NC(=O)c1ccc2c(c1)OCO2)c1ccccc1 (stereo not given),/,35%,8%,-7%[46.1 µM],-11%[46.1 µM],0%,/,-4%
Clc1ccc(C2[C@H]3CN(CC4CCCCC4)[C@H](c4ccccc4)C34CC2(c2cccnc2)C4)cn1 (stereo not given in full),-1%,-16%,1%,/,/,-5%,2.3%,-1%
CCc1ccc(S(=O)(=O)NCCc2cn3ccsc3n2)cc1,-7%,/,46%[activator],/,1%[46.1 µM],/,1.0%,/
CCOC(=O)C1(Cc2ccccc2)CCCN(CCO)C1 (stereo not given),/,-1%,1%,10%[46.1 µM],10%,1%,/,1%
Cc1ccc(Nc2nnc(-c3ccc4c(c3)OCO4)o2)c(C)c1,-10%,2%,52%[activator],/,/,-14%&-1%,-0.1%,-1%
O=C(NCCC1=CCCCC1)c1cnccn1,3%,7%,3%,?,1%,-12%,0.5%,-3%
CSCCOC(=O)COc1ccc(/C=N/NC(=O)c2nn(C)cc2Cl)cc1,8%,-16%,5%,0%,17%,-51%,-5.5%,16%
Cc1ccsc1C(=O)NNC(=S)NCC(C)C,5%,9%,29%,10%,24%,-2%,7.6%,2%
CCC(Sc1ncccc1C(=O)Oc1cccc([N+](=O)[O-])c1)C(=O)Nc1ccccc1OC (stereo not given),?,-11%,0%,-1%,14%,11%,-6.7%,-7%
COc1ccc2cc(Br)ccc2c1CC(=O)N(C)C,/,-17%,-12%,-3%[46.1 µM],/,-4%,/,0%
Cc1ccc(C(=O)Nc2cccc([N+](=O)[O-])c2)cc1S(=O)(=O)Nc1cccc(C(=O)O)c1,/,-22%,32%[activator],-2%[46.1 µM],14%,-9%,/,8%
CCOc1ccc(N2C(=O)NC(=O)/C(=C\c3ccc(N4CCCCC4)o3)C2=O)cc1,-15%,-17%,-11%,?,-12%,7%,-24%,0%
CCOC(=O)c1c(NC(=O)c2cccs2)sc(C(=O)N(C)C)c1C,12%,-5%,25%,10%[46.1 µM],4%,-49%,-12%,8%
C/C(=N\NC(=O)c1cccc([N+](=O)[O-])c1)c1ccco1,/,3%,31%[activator],5%[46.1 µM],14%,5%,/,-1%
COc1ccc(NC(=S)NC2CCCC2)c(OC)c1,/,-1%,33%[activator],9%,5%,14%,/,15%

Complete entries, quoted from the list. Order of screens: Cruzain noTriton, RE007 growth inh, StopGo reporter, MARV entry inh, Lassa entry inh, NS1 inh, Cruzain Triton, SARS PLP yeast
Record of COc1ccc(C(=O)CN2CCOCC2)cc1F → 0%, 16%, -9%, -1%&-1%, 2%, -21%, -0.3%, -5%
Record of Cc1ccc(C(=O)Nc2cccc([N+](=O)[O-])c2)cc1S(=O)(=O)Nc1cccc(C(=O)O)c1 → /, -22%, 32%[activator], -2%[46.1 µM], 14%, -9%, /, 8%
Record of O=C(NNS(=O)(=O)c1cccc(Cl)c1)c1cc(-c2ccc(F)cc2)nc2ccccc12 → /, 2%, -6%, -15%[46.1 µM], 10%, 7%, /, 0%
Record of CCCCOC(=O)CSCC(=O)N1N=C(c2cccs2)CC1c1ccc(F)cc1 (stereo not given) → 5%, 0%, 0%, 0%, -1%, -63%, -13%, -50%
Record of CCc1ccc(S(=O)(=O)NCCc2cn3ccsc3n2)cc1 → -7%, /, 46%[activator], /, 1%[46.1 µM], /, 1.0%, /
